DUX4 inh = blocks DUX4-driven transcriptional activation; 293T-iDUX4 ZSCAN4-Gaussia luciferase reporter, 24 h; active compounds read low; activity change, negative = inhibition, % (test concentration not listed); 0.8% of 37,000 active; AID 1224904;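 active = -10% or lower and over 25 points stronger than a control reporter; inconclusive = -10% or lower with a smaller gap; inactive = above -10%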;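 also: 0% = median of neutral control wells and -100% = median of positive control wells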
DUX4 inh difference = second read-out of DUX4 inh, no call of its own (marks repeat the call); Gaussia minus Italica difference, %; measured here: selective DUX4 reporter inhibition;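 worked out from the two reporters; negative = selective loss of the DUX4 reporter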
DUX4 inh control = further read-out of DUX4 inh, marked with its call; activity change, negative = inhibition, %; measured here: Italica tet-on control reporter;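 0 = neutral control and -100 = positive control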
* hit, by the source's call; ? = inconclusive; · = not tested or not shown. A portion of the library; count on the stated rates, not on these rows.

SMILES	DUX4 inh	DUX4 inh difference	DUX4 inh control
C[C@@H]1CCCCO[C@@H](CN(C)Cc2ccc3c(c2)OCO3)[C@@H](C)CN([C@@H](C)CO)C(=O)c2cc(NC(=O)CCC(F)(F)F)ccc2O1	-2	3	-4.9
O=C(C1CCOCC1)N1CC(=O)N2[C@H](CO)[C@H](c3ccc(-c4cccnc4)cc3)[C@H]2C1	13	1	12
CCCC(=O)N1CCC2(CC1)CN[C@@H](CO)c1[nH]c3cc(OC)ccc3c12	9	-6	15
C[C@H]1CN([C@@H](C)CO)C(=O)c2cccc(NC(=O)c3ccncc3)c2O[C@H]1CN(C)Cc1ccc2c(c1)OCO2	-2	-3	1.3
C[C@H](CO)N1C[C@H](C)[C@@H](CN(C)S(=O)(=O)c2ccc([N+](=O)[O-])cc2)OCc2ccccc2-c2ccccc2C1=O	-1	-11	9.2
C[C@H](CO)N1C[C@H](C)[C@@H](CN(C)C(=O)Cc2ccccc2)OCCCC[C@H](C)Oc2ccc(NC(=O)c3ccncc3)cc2C1=O	-1	0	-1.6
COc1ccc(S(=O)(=O)N[C@@H]2C=C[C@@H](CC(=O)N3CCC(Cc4ccccc4)CC3)O[C@H]2CO)cc1	-6	-4	-2.3
C[C@H](CO)N1C[C@H](C)[C@H](CN(C)S(=O)(=O)c2cccs2)Oc2ncccc2C1=O	-1	-1	-0.1
Cc1noc(C)c1S(=O)(=O)N(C)C[C@@H]1OCCCC[C@H](C)Oc2ccc(NC(=O)c3ccccc3)cc2C(=O)N([C@H](C)CO)C[C@@H]1C	3	5	-1.8
O=C(C[C@@H]1C[C@@H]2c3cc(NC(=O)C4CCC4)ccc3O[C@@H]2[C@@H](CO)O1)NCc1cccc(F)c1	-1	2	-2.5
COc1ccccc1NC(=O)N1CC(=O)N2[C@H](CO)[C@@H](c3ccc(C#CCC(C)C)cc3)[C@H]2C1	-1	3	-4.4
CN1c2ccc(-c3ccccc3F)cc2[C@@H]2[C@@H](CCN2S(=O)(=O)c2ccccc2F)[C@@H]1CO	19	2	17
Cc1noc(C)c1S(=O)(=O)N(C)C[C@@H]1OCc2ccccc2-c2c(n(C)c3ccccc23)C(=O)N([C@@H](C)CO)C[C@H]1C	9	-6	15
CCNC(=O)[C@@H]1[C@@H](CO)[C@@H]2Cn3c(ccc(/C=C/c4ccccc4)c3=O)[C@H]1N2C(C)=O	2	0	2.1
COc1ccc2c3c([nH]c2c1)[C@H](CO)N(C(=O)Nc1ccc(F)cc1)CC31CN(Cc2cc(-c3ccccc3)on2)C1	?	·	·
C[C@@H]1CN([C@H](C)CO)C(=O)c2cc(NS(=O)(=O)c3cn(C)cn3)ccc2O[C@H]1CN(C)CC1CCCCC1	-1	0	-1.4
COc1ccc(C#Cc2ccc([C@H]3[C@H]4CN(C(C)=O)CC(=O)N4[C@H]3CO)cc2)cc1	10	9	1.0
CCCC(=O)Nc1ccc2c(c1)C(=O)N(C)[C@@H]1CC[C@H](CC(=O)NCc3cccc(F)c3)O[C@@H]1CO2	6	2	4.0
CN1C(=O)c2cc(NC(=O)c3cccs3)ccc2OC[C@H]2O[C@@H](CC(=O)NCCN3CCCCC3)CC[C@@H]21	-6	-8	2.0
O=C(c1ccc(F)cc1)N1CC(=O)N2[C@H](C1)[C@H](c1ccc(C#CCC3CCCC3)cc1)[C@@H]2CO	?	·	·

The last 3 records of the part before are carried over, then new ones follow:
SMILES	DUX4 inh	DUX4 inh difference	DUX4 inh control
CCCC(=O)Nc1ccc2c(c1)C(=O)N(C)[C@@H]1CC[C@H](CC(=O)NCc3cccc(F)c3)O[C@@H]1CO2	6	2	4.0
CN1C(=O)c2cc(NC(=O)c3cccs3)ccc2OC[C@H]2O[C@@H](CC(=O)NCCN3CCCCC3)CC[C@@H]21	-6	-8	2.0
O=C(c1ccc(F)cc1)N1CC(=O)N2[C@H](C1)[C@H](c1ccc(C#CCC3CCCC3)cc1)[C@@H]2CO	?	·	·
COC(=O)N(C)C[C@H]1OCc2ccccc2-c2c(n(C)c3ccccc23)C(=O)N([C@@H](C)CO)C[C@H]1C	4	6	-1.6
O=C(CN1CCOCC1)N[C@H]1CC[C@H](CCn2cc(C3CC3)nn2)O[C@H]1CO	-4	-1	-2.5
C/C=C/c1ccc2c(c1)O[C@@H](CN(C)C(=O)c1ccccn1)[C@@H](C)CN([C@@H](C)CO)S2(=O)=O	0	-1	0.5
CC(C)NC(=O)N[C@H]1CC[C@@H](CCNS(=O)(=O)Cc2ccccc2)O[C@H]1CO	8	4	3.3
C[C@H]1CN([C@@H](C)CO)C(=O)CCCn2nncc2CO[C@H]1CN(C)C(=O)Nc1cccc(C(F)(F)F)c1	-2	-8	6.3
COc1cccc(C#Cc2cnc3c(c2)C(=O)N([C@@H](C)CO)C[C@H](C)[C@H](CN(C)C(=O)C2CCCCC2)O3)c1	-2	-3	0.9
C[C@@H]1CCCCO[C@@H](CN(C)S(=O)(=O)c2cccs2)[C@@H](C)CN([C@H](C)CO)C(=O)c2cc(N(C)C)ccc2O1	2	-1	3.3
COc1cccc(-c2ccc3c(c2)O[C@@H](CN(C)Cc2cccnc2)[C@@H](C)CN([C@H](C)CO)S3(=O)=O)c1	-3	-3	-0.6
CN1c2ccc(-c3ccc(F)cc3)cc2[C@@H]2[C@@H](CCN2C(=O)C2CCOCC2)[C@@H]1CO	14	5	9.7
COc1ccc(CN2C[C@@H](C)[C@H](OC)CN(C)C(=O)c3cc(NC(=O)c4nc5ccccc5s4)ccc3OC[C@H]2C)cc1	?	·	·
C[C@@H]1CCCCO[C@@H](CN(C)C(=O)C2CCCCC2)[C@H](C)CN([C@@H](C)CO)C(=O)c2cc(N(C)C)ccc2O1	4	4	-0.1
C[C@@H]1CN([C@@H](C)CO)C(=O)c2ccccc2-c2ccccc2CO[C@@H]1CN(C)C(=O)c1ccccc1	25	24	1.2
CCCNC(=O)[C@H]1[C@H](CO)[C@H]2Cn3c(ccc(C4=CCCC4)c3=O)[C@@H]1N2C(=O)C1CC1	0	7	-7.1
CCC(=O)N1C[C@H](C)[C@@H](OC)CN(C)C(=O)c2cc(NC(=O)c3cc(C)on3)ccc2OC[C@@H]1C	-5	-3	-1.9
C[C@@H]1CCCCO[C@H](CN(C)C(=O)CCC(F)(F)F)[C@@H](C)CN([C@H](C)CO)C(=O)c2cc(NC(=O)Cc3ccccc3)ccc2O1	2	3	-1.5
CC(=O)N1CCCCN2[C@H](CO)[C@H](c3ccc(-c4cccc(C)c4)cc3)[C@H]2C1	4	10	-5.9
Cc1noc(C)c1S(=O)(=O)N(C)C[C@H]1OCCCC[C@@H](C)Oc2ccc(NC(=O)CCCCCC(=O)Nc3ccccc3N)cc2C(=O)N([C@@H](C)CO)C[C@@H]1C	-1	0	-0.9
O=C(NC[C@H]1N[C@H](CO)[C@@H]1c1ccc(-c2ccccc2F)cc1)c1ccccc1	-1	1	-1.6
COc1cccc(C#Cc2ccc3c(c2)[C@@H]2[C@@H](CCN2C(=O)c2ccccc2F)[C@H](CO)N3)c1	18	7	11
O=C(C[C@H]1C=C[C@H](NS(=O)(=O)c2ccccc2)[C@H](CO)O1)NCCN1CCCCC1	-3	-4	1.5

2 of the compounds above, with values under each structure:
Order of values – DUX4 inh	DUX4 inh difference	DUX4 inh control
- CN1c2ccc(-c3ccc(F)cc3)cc2[C@@H]2[C@@H](CCN2C(=O)C2CCOCC2)[C@@H]1CO
→ 14	5	9.7
- C[C@@H]1CN([C@@H](C)CO)C(=O)c2ccccc2-c2ccccc2CO[C@@H]1CN(C)C(=O)c1ccccc1
→ 25	24	1.2

More results follow:
SMILES	DUX4 inh	DUX4 inh difference	DUX4 inh control
COc1cccc(-c2ccc3c(c2)[C@@H]2[C@@H](CCN2Cc2ccccc2OC)[C@@H](CO)N3)c1	?	·	·
CN1C(=O)c2cc(NC(=O)c3ccc(F)c(F)c3)ccc2OC[C@@H]2O[C@H](CC(=O)N[C@@H]3CCN(Cc4ccccc4)C3)CC[C@H]21	-2	3	-5.6
CC(=O)N1[C@@H]2c3ccc(-c4cccnc4)c(=O)n3C[C@H]1[C@H](CO)[C@H]2C(=O)N1CCc2ccccc2C1	-1	-1	-0.1
COc1ccc(CNC(=O)N(C)C[C@H]2OCc3ccccc3-c3c(n(C)c4ccccc34)C(=O)N([C@@H](C)CO)C[C@H]2C)cc1	-5	-7	1.7
O=C(Nc1ccc2c(c1)[C@H]1C[C@@H](CC(=O)N3CCOCC3)O[C@H](CO)[C@H]1O2)c1cccnc1	4	6	-1.4
COc1ccc2c3c([nH]c2c1)[C@@H](CO)N(CC1CC1)CC31CCN(C(=O)Nc2cccc(F)c2)CC1	3	9	-5.3
CC(C)CC#Cc1cnc2c(c1)C(=O)N([C@H](C)CO)C[C@H](C)[C@@H](CN(C)Cc1cccc(F)c1)O2	-2	-8	6.4
CC(C)NC(=O)N(C)C[C@H]1Oc2ccc(NC(=O)c3ccncc3)cc2C(=O)N([C@H](C)CO)C[C@@H]1C	-3	-2	-1.0
COCC#Cc1cnc2c(c1)C(=O)N([C@H](C)CO)C[C@H](C)[C@H](CN(C)C(=O)Nc1ccccc1OC)O2	5	-5	9.5
O=C(NCc1ccc(F)cc1)[C@H]1[C@H](CO)[C@H]2Cn3c(cccc3=O)[C@@H]1N2Cc1cccnc1	2	-8	9.6
C[C@H]1CN([C@@H](C)CO)C(=O)c2cc(C#CC3(O)CCCC3)cnc2O[C@@H]1CN(C)S(=O)(=O)c1cccc(F)c1	0	-3	3.1
O=C(c1ccccn1)N1CC(=O)N2[C@H](CO)[C@@H](c3ccc(-c4cccc(F)c4)cc3)[C@H]2C1	4	-7	12
C[C@H]1CN([C@@H](C)CO)C(=O)c2cc(C3=CCCCC3)cnc2O[C@H]1CN(C)C(=O)CN1CCOCC1	0	-1	1.3
CN(C)C(=O)c1cccc(-c2ccc([C@H]3[C@H](CO)N4CCCCN(C(=O)C5CCC5)C[C@@H]34)cc2)c1	-2	-10	7.5
C[C@@H](NC(=O)[C@@H]1[C@@H](CO)[C@@H]2Cn3c(cccc3=O)[C@@H]2N1Cc1cccnc1)c1ccccc1	3	-9	12
COc1ccc2c3c(n(C)c2c1)[C@@H](CO)N(C(=O)c1ccncc1)CC31CCN(C)CC1	7	2	5.0
COc1ccc(-c2ccc([C@H]3[C@H](CO)N4C(=O)CN(C(=O)C5CC5)C[C@@H]34)cc2)cc1	5	8	-3.0
CNC[C@@H]1Oc2ncc(C3=CCCCC3)cc2C(=O)N([C@@H](C)CO)C[C@@H]1C	-2	-3	1.1
CC(=O)NC[C@H]1[C@@H](c2ccc(C#CC(C)(C)O)cc2)[C@@H](CO)N1C(=O)CC1CC1	1	4	-2.3
COCC(=O)Nc1ccc2c(c1)[C@@H]1C[C@@H](CC(=O)NCc3ccccc3F)O[C@@H](CO)[C@@H]1O2	1	-1	2.0

Fetched by structure from the list above, five records:
SMILES	DUX4 inh	DUX4 inh difference	DUX4 inh control
CC(=O)NC[C@H]1[C@@H](c2ccc(C#CC(C)(C)O)cc2)[C@@H](CO)N1C(=O)CC1CC1	1	4	-2.3
COc1ccc(CNC(=O)N(C)C[C@H]2OCc3ccccc3-c3c(n(C)c4ccccc34)C(=O)N([C@@H](C)CO)C[C@H]2C)cc1	-5	-7	1.7
COc1cccc(-c2ccc3c(c2)[C@@H]2[C@@H](CCN2Cc2ccccc2OC)[C@@H](CO)N3)c1	?	·	·
COc1ccc2c3c([nH]c2c1)[C@@H](CO)N(CC1CC1)CC31CCN(C(=O)Nc2cccc(F)c2)CC1	3	9	-5.3
COc1ccc(-c2ccc([C@H]3[C@H](CO)N4C(=O)CN(C(=O)C5CC5)C[C@@H]34)cc2)cc1	5	8	-3.0

(continued)
SMILES	DUX4 inh	DUX4 inh difference	DUX4 inh control
CC(C)CC#Cc1ccc([C@@H]2[C@H]3CN(S(=O)(=O)Cc4ccccc4)CCCCN3[C@H]2CO)cc1	-2	-19	17
Cc1ccc(S(=O)(=O)N(C)C[C@@H]2OCCCC[C@@H](C)Oc3ccc(NC(=O)C4CCCCC4)cc3C(=O)N([C@H](C)CO)C[C@H]2C)cc1	0	-2	1.7
O=C(c1ccncc1)N1CC(=O)N2[C@H](C1)[C@H](c1ccc(C#CCC3CCCC3)cc1)[C@@H]2CO	-2	2	-3.8
CN(C)CC(=O)N1[C@H](CO)[C@@H](c2ccc(C#CC3CCCCC3)cc2)[C@@H]1C#N	-3	-1	-1.8
O=C(Nc1ccc(Cl)cc1)N1C[C@@H]2[C@H](c3ccccc31)[C@@H](CO)N2C(=O)c1ccccn1	5	3	2.2
C[C@H](CO)N1C[C@H](C)[C@@H](CN(C)C(=O)Nc2ccc3c(c2)OCO3)OCc2ccccc2-c2c(n(C)c3ccccc23)C1=O	7	-8	15
COCC(=O)N1CC[C@@H]2[C@H](CO)Nc3ccc(C#Cc4cccc(F)c4)cc3[C@@H]21	?	·	·
C[C@@H](NC(=O)C[C@H]1C[C@H]2c3cc(NC(=O)c4ccc5c(c4)OCO5)ccc3O[C@H]2[C@@H](CO)O1)c1ccccc1	5	-1	5.3
O=C(C[C@H]1C[C@H]2c3cc(NS(=O)(=O)c4ccc(F)cc4)ccc3O[C@H]2[C@H](CO)O1)NC1CCCCC1	-3	-2	-1.0
C[C@@H]1CN([C@@H](C)CO)C(=O)CCCn2nncc2CO[C@@H]1CN(C)S(=O)(=O)c1cn(C)cn1	0	-3	2.2
CCCN(C)C[C@@H]1OCCCC[C@@H](C)Oc2ccc(NS(=O)(=O)c3ccc(C)cc3)cc2C(=O)N([C@H](C)CO)C[C@H]1C	3	2	0.5
CO[C@H]1CN(C)C(=O)c2ccc(NC(=O)C3CCC3)cc2OC[C@H](C)N(C(=O)CN(C)C)C[C@@H]1C	0	-1	0.7
C[C@H](O)C#Cc1ccc2c(c1)O[C@H](CN(C)C(=O)C1CCCCC1)[C@@H](C)CN([C@@H](C)CO)S2(=O)=O	5	3	1.8
COc1ccc2c3c([nH]c2c1)[C@@H](CO)N(C(=O)c1ccncc1)CC31CCN(C(=O)NC(C)C)CC1	16	4	11
CN(C)C(=O)C[C@@H]1C=C[C@H](NS(=O)(=O)c2ccccc2)[C@@H](CO)O1	3	2	0.6

Compound activity as filed in PubChem BioAssay.
